Screening data as filed in PubChem.
Mtb growth = Mycobacterium tuberculosis H37Rv growth inhibition, putative kinase inhibitor library, confirmatory dose response (AID 2842) | M. tuberculosis H37Rv growth inhibition; higher % means a stronger effect; some inactives read as strong as hits | one-dose inhibition, % at 10 µg/mL; IC90 in µg/mL for titrated hits | hit rate 5.2% among 24,000;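 active = confirmed in a dose series; about a fifth of its hits are not listed in these tables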;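 note: bacteria incubated one week before Alamar blue readout; 0% = bacteria only wells and 100% = bacteria with high antibiotic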
Numbers without * were called inactive.

Sample of the layout (two entries):
canonical_smiles,Mtb growth
O=C(Nc1c(C(=O)Nc2ccc3c(c2)OCO3)oc2ccccc12)c1ccccc1[N+](=O)[O-],1%
COc1cc(/C=C(\C#N)C(=O)Nc2cccc([N+](=O)[O-])c2)cc(OC)c1OC,2%

Main list, from the start:
canonical_smiles,Mtb growth
O=C(Nc1c(C(=O)Nc2ccc3c(c2)OCO3)oc2ccccc12)c1ccccc1[N+](=O)[O-],1%
COc1cc(/C=C(\C#N)C(=O)Nc2cccc([N+](=O)[O-])c2)cc(OC)c1OC,2%
COc1ccccc1-c1nnc(NC(=O)c2ccc(-c3ccccc3)cc2)o1,1.5µg/mL*
O=C(COc1cccc2ccc(N3CCN(c4ccccc4)CC3)nc12)Nc1cccc(F)c1,5%
O=C(Cn1cnc2c(cnn2-c2ccc(Cl)cc2)c1=O)Nc1ccc(Cl)c(Cl)c1,-3%
O=C(O)CCn1cc(/C=N\NC(=O)c2ccncc2)c(-c2cccc([N+](=O)[O-])c2)n1,82%
Cc1cccc(-n2ccnc2SCC(=O)Nc2nc3ccccc3s2)c1C,4%
O=C(Nc1nc(-c2ccc(Cl)s2)cs1)c1ccc(S(=O)(=O)N2CCc3ccccc3C2)cc1,-4%
Cc1ccc(C)c(-c2nnc(NC(=O)c3ccc(S(=O)(=O)N4CCCC4)cc3)o2)c1,0%
CCC(=O)Nc1nnc(-c2ccc(OC)cc2)o1,4.4µg/mL*

Other compounds follow.
canonical_smiles,Mtb growth
COc1ccc(NC(=O)c2nnn(Cc3ccc(C)cc3)c2N)cc1OC,-5%
O=S(=O)(NCC(c1ccco1)S(=O)(=O)c1ccc(Cl)cc1)c1cccs1 (stereo unspecified),-1%
O=C(CCN1C(=O)/C(=C\c2ccco2)SC1=S)Nc1ccc([N+](=O)[O-])cc1O,-5%
COc1ccnc2c1c(=O)n(CC#N)c(=O)n2C,-1%
COc1cccc(-c2cc(C#N)c(NC(=O)c3cccs3)o2)c1,-6%
O=C(CSc1ncnc2c1nnn2Cc1ccc(F)cc1)N1CCCc2ccccc21,1%
Cc1cccc(NC(=O)CSc2nc(-c3ccccc3)nc3c2Cc2c(ccc4ccccc24)O3)c1,9%
COc1ccc(/C=N/Nc2nc(=O)[nH]nc2C)cc1O,-7%
O=C(CSc1ccc2nnc(-c3ccc(Cl)cc3)n2n1)Nc1ccccc1,0%
CCN(CC)S(=O)(=O)c1ccc(C(=O)Nc2nc(-c3cc(C)ccc3C)cs2)cc1,9%

The list continues:
canonical_smiles,Mtb growth
COc1ccc2nc(Nc3nc4c(OC)cccc4s3)sc2c1,3.4µg/mL*
Nc1nc(SCc2cccc([N+](=O)[O-])c2)[nH]c(=O)c1NC(=O)c1ccc(F)c(F)c1,-4%
CCOC(=O)CSc1ccc2nnc(-c3ccc(Cl)cc3)n2n1,-13%
Cc1ccc(CSc2nc3c(c(=O)[nH]c(=O)n3C)n2CCC(C)C)cc1,2%
COc1ccc(-n2nc3c(c2NC(=O)c2c(F)cccc2Cl)CS(=O)C3)cc1 (stereo unspecified),6%
Cn1c(=O)[nH]c(=O)c2c1nc1n(-c3ccc(S(N)(=O)=O)cc3)c(-c3ccccc3)cn21,-14%
Cc1cc(Cl)ccc1NC(=O)CSc1ncnc2scc(-c3ccccc3)c12,7%
CCOC(=O)c1nn(-c2ccc(C(F)(F)F)cc2)c(=O)c2c(NC(=O)c3c(F)cccc3F)scc12,6%
CCOc1ccccc1NC(=O)c1oc2ccccc2c1NC(=O)C(C)(C)C,-2%
Cc1ccc(C)c(-c2nnc(NC(=O)C(c3ccccc3)c3ccccc3)o2)c1,-5%

More entries.
canonical_smiles,Mtb growth
COc1ccc2cc(CCNC(=O)CCC3CCCC3)c(=O)[nH]c2c1,0%
CCOC(=O)C1CCN(c2ncnc3c2cnn3-c2ccccc2)CC1,-1%
CCC(Sc1nncn1C)C(=O)Nc1nnc(-c2ccccc2OC)s1 (stereo unspecified),0%
COc1ccc(S(=O)(=O)NC2CC(=O)N(c3ccc(F)cc3)C2)cc1 (stereo unspecified),5%
O=C1OCCC1Sc1nc2sc3c(c2c(=O)[nH]1)CCC3 (stereo unspecified),-16%
Cn1c(=O)[nH]c(=O)c2c1nc(SCC(=O)c1ccc(Cl)cc1)n2CCc1ccccc1,-10%
O=C(Nc1nc(-c2ccc(-c3ccccc3)cc2)cs1)c1ccc(S(=O)(=O)N2CCCCCC2)cc1,-2%
COc1ccc(OC)c2[nH]c(=O)c(CCNC(=O)C3CCCC3)cc12,-3%
COc1ccccc1NC1=C(Cl)C(=O)N(c2ccc(C)cc2)C1=O,-6%
N#Cc1ccccc1NS(=O)(=O)c1cc2c3c(c1)CCC(=O)N3CCC2,-22%

(continued)
canonical_smiles,Mtb growth
Cc1nc2c(ccc3nc(NC(=O)c4ccccc4Oc4ccccc4)sc32)s1,11%
CC1C(=O)N2CCCc3cc(NS(=O)(=O)c4ccc([N+](=O)[O-])cc4)cc1c32 (stereo unspecified),9%
COC(=O)c1ccc(CSc2nc(C)nc3c2c(=O)n(C)c(=O)n3C)o1,3%
Cc1cccc(-n2c(C)cn3c4c(=O)n(CCCO)c(=O)n(C)c4nc23)c1C,1%
CCOc1ccc(-c2nnc3c4cc(OC)c(OC)cc4n(Cc4cccc(C)c4)cc2-3)cc1,58%
N#Cc1c(N)nc(SCc2ccccc2)c(C#N)c1C1CCCCC1,-4%
COc1ccc(Cn2cc3c(-c4ccc(C)c(C)c4)nnc-3c3cc4c(cc32)OCCO4)cc1,5%
Cc1ccc(-n2nnc3c(SCC(=O)NCc4ccc5c(c4)OCO5)ncnc32)cc1,6%
Cc1csc2ncc(C(=O)Nc3cc(Cl)ccc3Cl)c(=O)n12,-4%
Cc1cc(C)nc(NS(=O)(=O)c2ccc(NC(=S)NC(=O)/C=C/c3ccccc3)cc2)n1,-13%

(continued)
canonical_smiles,Mtb growth
O=C(COc1ccccc1/C=C1\SC(=O)NC1=O)Nc1ccccc1,25%
COCCn1c(SCc2ccc(F)cc2)nc2c1c(=O)[nH]c(=O)n2C,-1%
Cc1cc(NC(=O)CN2C(=O)CC(c3ccccc3)Sc3ccccc32)no1 (stereo unspecified),14%
O=c1[nH]c(O)c(/C=C2\C=Nc3ccccc32)s1,4%
O=C(Cc1cccc2ccccc12)Nc1nc2ccc(S(=O)(=O)N3CCCCC3)cc2s1,5%
Cn1c(=O)c2c(SCC(=O)NC3CCCCC3)nc(-c3ccco3)nc2n(C)c1=O,-3%
COc1ccc(-c2nnc3c4cc(OC)ccc4n(Cc4cccc(OC)c4)cc2-3)cc1,12%
Brc1ccc(Nc2ncnc3nc[nH]c23)cc1,4%
CCOc1ccc(NC(=O)c2oc3ccccc3c2NC(=O)c2ccc(OCC)cc2)cc1,-2%
Cc1nc(-c2ccccc2)sc1CCNS(=O)(=O)c1ccc2ccccc2c1,2%

(list continues)
canonical_smiles,Mtb growth
Cc1nnc(NC(=O)c2ccc([N+](=O)[O-])o2)s1,62%
O=C(CSc1n[nH]c(=O)[nH]c1=O)N/N=C/c1ccc(Br)cc1,-9%
CCCCSc1nc2c(c(=O)[nH]1)C(c1ccncc1)C1=C(CCCC1=O)N2 (stereo unspecified),-2%
O=C(c1ccccc1)c1cn(Cc2ccc(F)cc2)c2cc3c(cc2c1=O)OCCO3,2%
CS(=O)(=O)c1ccc2nc(NC(=O)c3cccc(F)c3)sc2c1,11%
Cc1[nH]c2ccccc2c1C(=O)CSc1ncnc2sc3c(c12)CCC3,-6%
CCN1CCCC1CNC(=O)NC1CC(=O)N(c2ccc(C)c(C)c2)C1 (stereo unspecified),-6%
COc1ccc(NCC(O)Cn2c3ccccc3n3c(=O)cc(C)c(C#N)c23)cc1 (stereo unspecified),0%
CCOC(=O)CSC(C)C(=O)Nc1nnc(-c2c(C)cc(C)cc2C)s1 (stereo unspecified),5%
CCOC(=O)c1nn(-c2ccc(OC)cc2)c(=O)c2c(NC(=O)Cc3cccc4ccccc34)scc12,-3%

The results go on:
canonical_smiles,Mtb growth
Nc1c(C(=O)c2ccc(Br)cc2)sc2nc3c(cc12)CCC3,6%
O=C(Nc1ccc(S(=O)(=O)Nc2nccs2)cc1)c1ccc(Br)s1,5%
CCOC(=O)c1nn(-c2ccc(F)cc2)c(=O)c2c(NC(=O)COc3ccc(Cl)cc3Cl)scc12,-4%
NC(=O)c1ccccc1NS(=O)(=O)c1c[nH]c(=O)[nH]c1=O,-6%
Cc1ccccc1NC(=O)Nc1ccncc1,1%
CCS(=O)(=O)c1ccc(CC(=O)Nc2nnc(-c3ccc(C)cc3C)o2)cc1,32%
COc1ccc(-n2ccnc(SCC(=O)Nc3ccc(F)cc3F)c2=O)cc1,-4%
O=C(Cn1cnc2c(cnn2-c2cccc(Cl)c2)c1=O)NCc1ccccc1Cl,-1%
Clc1ccc2nc(N3CCc4ccccc4C3)sc2c1,-5%
Cc1cccc2sc(NC(=O)COc3ccc(Cl)cc3)nc12,3%

A draw from above in order of molecular weight, lowest first.
canonical_smiles,Mtb growth
Cc1ccccc1NC(=O)Nc1ccncc1,1%
NC(=O)c1ccccc1NS(=O)(=O)c1c[nH]c(=O)[nH]c1=O,-6%
Cc1cccc2sc(NC(=O)COc3ccc(Cl)cc3)nc12,3%
CS(=O)(=O)c1ccc2nc(NC(=O)c3cccc(F)c3)sc2c1,11%
CCN1CCCC1CNC(=O)NC1CC(=O)N(c2ccc(C)c(C)c2)C1 (stereo unspecified),-6%
Nc1c(C(=O)c2ccc(Br)cc2)sc2nc3c(cc12)CCC3,6%
CCOC(=O)CSC(C)C(=O)Nc1nnc(-c2c(C)cc(C)cc2C)s1 (stereo unspecified),5%
CCS(=O)(=O)c1ccc(CC(=O)Nc2nnc(-c3ccc(C)cc3C)o2)cc1,32%
COc1ccc(NCC(O)Cn2c3ccccc3n3c(=O)cc(C)c(C#N)c23)cc1 (stereo unspecified),0%
COc1ccc(-n2ccnc(SCC(=O)Nc3ccc(F)cc3F)c2=O)cc1,-4%
O=C(Cn1cnc2c(cnn2-c2cccc(Cl)c2)c1=O)NCc1ccccc1Cl,-1%
O=C(Nc1ccc(S(=O)(=O)Nc2nccs2)cc1)c1ccc(Br)s1,5%
CCOC(=O)c1nn(-c2ccc(OC)cc2)c(=O)c2c(NC(=O)Cc3cccc4ccccc34)scc12,-3%
CCOC(=O)c1nn(-c2ccc(F)cc2)c(=O)c2c(NC(=O)COc3ccc(Cl)cc3Cl)scc12,-4%

Next results
canonical_smiles,Mtb growth
CCOC(=O)c1nn(-c2ccc(Cl)cc2)c(=O)c2c(NC(=O)c3ccc(OC)cc3)scc12,4%
Cc1cc(NC(=O)c2ccc([N+](=O)[O-])s2)no1,61%
Cc1ccc(-n2c(=O)[nH]c3c(C(N)=O)nc(-c4ccc(Cl)c(Cl)c4)nc32)cc1C,-14%
COC(=O)c1ccc(Sc2nc3ccccc3o2)c([N+](=O)[O-])c1,-2%
O=C(Cn1ccn(-c2cccc3ccccc23)c(=O)c1=O)NCc1ccccc1Cl,8%
Cc1nnc(SCCn2c(N(C)Cc3ccccc3)nc3c2c(=O)[nH]c(=O)n3C)s1,9%
COc1cccc(N2CC(NC(=O)Nc3ccon3)CC2=O)c1 (stereo unspecified),1%
CCOC(=O)c1ccc(N2C(=O)CC(Sc3ccccc3C(=O)O)C2=O)cc1 (stereo unspecified),-24%
COc1cccc(C2c3c(oc4ccc(Cl)cc4c3=O)C(=O)N2CCc2ccccc2)c1 (stereo unspecified),2%
Cc1c(C)n2c(SCC(=O)Nc3ccc(F)cc3)nnc2[nH]c1=O,-6%

The list continues.
canonical_smiles,Mtb growth
Cc1nnc(NC(=O)CSc2nnc(CNC(=O)c3cccc4ccccc34)n2-c2ccc(F)cc2)s1,-2%
O=S(=O)(NCc1nnnn1-c1ccc(F)c(F)c1)c1ccc(F)cc1,7%
O=C(/C=C\c1ccc2c(c1)OCO2)Nc1c2c(nn1-c1ccccc1)CSC2,-1%
Cc1ccc(C(=O)/C=C/c2cccnc2)c(O)c1,11%
CCOC(=O)c1nn(-c2ccc(F)cc2)c(=O)cc1NCc1ccccn1,4%
CCOc1ccc(C(=O)Nc2c(N)nc(SCc3ccccn3)[nH]c2=O)cc1,-22%
Nc1nc(SCC(=O)Nc2cccc(F)c2)[nH]c(=O)c1NC(=O)c1cccs1,-2%
COc1ccc(C(=O)Nc2c(N)nc(SCc3ccccc3F)[nH]c2=O)cc1OC,-10%
CCSc1nnc(NC(=O)c2ccco2)s1,5%
O=C(O)c1ccccc1SC1CC(=O)N(c2cccc(C(F)(F)F)c2)C1=O (stereo unspecified),-13%

(listing goes on)
canonical_smiles,Mtb growth
Cc1cccc(NC(=O)c2sc3nc4c(c(-c5ccco5)c3c2N)CCCCC4)c1,6%
CCOC(=O)c1nn(-c2ccc(OC)cc2)c(=O)c2c(NC(=O)/C=C/c3ccc(OC)c(OC)c3)scc12,-2%
O=C1c2ccccc2-c2c(Nc3ccccc3)c(=O)[nH]c3cccc1c23,80%
COc1cccc2c1OC(c1cccnc1)N1N=C(c3cc(Cl)ccc3O)CC21 (stereo unspecified),13%
COc1ccc(C(=O)c2cn(Cc3ccccc3F)c3cc4c(cc3c2=O)OCCO4)cc1OC,1%
Cc1ccc(-n2nnc3c(=O)n(CC(=O)NCc4ccc5c(c4)OCO5)cnc32)cc1C,1%
COc1ccc(NC(=O)c2oc3ccccc3c2NC(=O)c2ccccc2)cc1OC,-6%
COc1ccc(Br)cc1/C=N/Nc1ncnc2nc[nH]c12,0%
CCCC(=O)Nc1nc2c(s1)C(=O)CC(C)(C)C2,-5%
Cc1ccc(-n2nc3c(c2NC(=O)COc2ccc4ccccc4c2)CSC3)cc1,-5%

Further records follow.
canonical_smiles,Mtb growth
COc1ccc(-c2nnc3[nH]c(=O)cc(C)n23)cc1,4%
Nc1nc(SCC(=O)NCc2ccccc2Cl)[nH]c(=O)c1NC(=O)c1ccccc1,-15%
Cn1c(=O)c2c(SCC(=O)Nc3ccc(C(F)(F)F)cc3)nc(-c3ccc([N+](=O)[O-])cc3)nc2n(C)c1=O,-4%
COc1ccc(OC)c(NC(=O)CSc2nnc(-c3ccncc3)n2N)c1,-10%
O=C(CCCl)Nc1c(C(=O)Nc2ccccc2F)oc2ccccc12,-3%

A portion of the library (hit frequency here may not be typical).
